# Assay outcomes as filed in PubChem BioAssay.
# Resorufin fluor – compounds fluorescent in resorufin spectral region; Compound fluorescence, resorufin region 547/598 nm, buffer; stronger effect = higher value; max dye-equivalent concentration, M; actives 0.04% (n = 59,000); active = above 10 nM dye equivalent; inconclusive = 1 to 10 nM; inactive = 1 nM or less; a few of its hits are not listed in these tables; further: highest value over a series up to 38 µM
#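 Tris 100 mM pH 8.0; compound added, 15 min RT; CCD imager read, ex 547 nm/em 598 nm; signal normalized to resorufin standard curve (six concentrations per plate) as dye-equivalent concentration.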
# TSHR agonist – agonists of human thyroid stimulating hormone receptor; actives 0.48% (n = 73,000); AID 926; Potency, µM (titrated, usually from 57.1 µM), for the others: at the top dose activation, hits mostly activators; HEK293-CNG-TSHR cells (CNG channel as cAMP sensor), membrane potential dye, cAMP; P16473; active = well fitted activation curve of enough size with the parental cells flat; inconclusive = any curve in the parental cells; inactive = parental cells flat and receptor cells flat or falling; further: potency means the concentration at half of the fitted maximal effect; % of control where 0% means no effect; weak receptor curves with flat parental cells got no call and are not listed
# Target sequence (P16473 whole entry, looked up): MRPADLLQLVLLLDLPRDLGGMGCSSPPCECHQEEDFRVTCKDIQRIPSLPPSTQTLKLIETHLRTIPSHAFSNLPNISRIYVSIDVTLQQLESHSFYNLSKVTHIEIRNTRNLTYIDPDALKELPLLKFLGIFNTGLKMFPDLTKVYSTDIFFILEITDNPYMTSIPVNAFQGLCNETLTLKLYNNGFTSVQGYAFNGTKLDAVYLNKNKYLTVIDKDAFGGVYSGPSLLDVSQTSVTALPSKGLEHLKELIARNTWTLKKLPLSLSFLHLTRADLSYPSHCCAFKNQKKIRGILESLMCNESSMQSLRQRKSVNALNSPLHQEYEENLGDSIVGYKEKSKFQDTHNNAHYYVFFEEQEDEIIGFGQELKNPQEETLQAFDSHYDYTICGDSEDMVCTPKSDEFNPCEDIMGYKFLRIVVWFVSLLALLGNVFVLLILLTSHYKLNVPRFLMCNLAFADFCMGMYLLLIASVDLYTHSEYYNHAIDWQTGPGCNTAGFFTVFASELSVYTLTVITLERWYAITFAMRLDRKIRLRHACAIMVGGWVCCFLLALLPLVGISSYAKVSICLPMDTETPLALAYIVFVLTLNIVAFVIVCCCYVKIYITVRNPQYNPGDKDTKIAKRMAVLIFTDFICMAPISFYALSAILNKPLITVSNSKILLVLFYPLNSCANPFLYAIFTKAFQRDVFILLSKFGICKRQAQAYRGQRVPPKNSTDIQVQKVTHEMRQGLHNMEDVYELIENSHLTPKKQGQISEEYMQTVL
#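 HEK 293 cells stably expressing TSHR and a modified CNG channel, with CNG-only parental cells as counterscreen, were preloaded 60 min at room temperature with membrane potential dye containing 100 uM RO 20-1724. Compound exposure was 30 min, and depolarization was read as fluorescence at 590 nm.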
# AID923 – qHTS Assay for Allosteric/Competitive Inhibitors of Caspase-1: Spectroscopic Profiling in AFC Spectral Region; AID 923, 2007; compound fluorescence, AFC spectral region (405/520 nm); almost no hit is shown here; actives 1.1% (n = 75,000); Potency, µM (top dose mostly 57.5 µM), without a hit: at the top dose fluorescence increase, usual class: activators; active means well fitted activation curve with a large enough effect; inconclusive means small, poorly fitted or top-dose-only effect;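 further: potency means the concentration at half of the fitted maximal effect; 0% is about no effect; scaled to a free AFC standard on each plate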
#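 Baseline compound fluorescence (AFC region, 405 nm ex/520 nm em) taken from the intercept of kinetic reads with 50 nM caspase-1 and 5 uM Ac-WEHD-AFC; normalized to an on-plate AFC standard curve; compounds titrated up to 57 uM.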
# A647 autofl – compound fluoresces in the A647 spectral region. Compound fluorescence, A647 channel (570/671 nm), Tris buffer. max dye-equivalent concentration, M. 59,000 tested, under 10 active. AID 592; active means above 1 µM dye equivalent; inconclusive means 0.1 to 1 µM; inactive means 0.1 µM or less;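 further: values scaled relative to a standard on each plate; highest value over a series up to 38 µM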
#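 Compound fluorescence was measured in 100 mM Tris buffer, pH 8.0, after 15 min at room temperature, using 570 nm excitation and 671 nm emission filters. Signal was normalized to a per-plate Alexa 647 standard curve and expressed as dye-equivalent concentration at each compound concentration.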
# A488 autofl – compound fluoresces in the A488 spectral region; compound autofluorescence, A488 spectral region, dye equivalency; stronger effect = higher value; max dye equivalency, M; actives 0.1% (n = 59,000); AID 591; active = above 10 nM dye equivalent; inconclusive = 1 to 10 nM; inactive = 1 nM or less; about half of its hits are not listed in these tables;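 further: highest value over a series up to 38 µM; compound alone in buffer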
#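 Spectroscopic profiling in the A488 region: compounds in pH 8.0 Tris (100 mM), 15 min RT, CCD imaging with 480 nm excitation and 540 nm emission; responses normalized against A488 dye standards.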
# * = called active by the depositor; i = inactive; ? = inconclusive; / = no result given; [ ] = another dose, or the depositor's remark. Not all compounds are listed; the hit share may differ from the screen's.
SMILES,Resorufin fluor,TSHR agonist,AID923,A647 autofl,A488 autofl
COC(=O)Nc1ccc2c(c1)N(C(=O)CCN1CCN3CCCC3C1)c1ccccc1CC2 (stereo not given),i,19%[11.4 µM],2.8%,7.1e-09,i
CCOc1ccc(C(=O)Nc2nncs2)cc1OCC,i,1%[11.4 µM],-0.7%,1e-09,i
CCOc1cc(C(N)=O)cc(OCC)c1OCC,i,/,-0.2%,5.8e-09,i
CCOC(=O)C1CCN(CC(O)COc2ccc(C(C)(C)CC)cc2)CC1 (stereo not given),i,12%,-1.3%,6.3e-09,i
O=C(c1cccc(F)c1)N1C2C=CC(C2)C1(C(F)(F)F)C(F)(F)F (stereo not given),i,25µM*,-0.2%,2.4e-09,i
Cn1c(=O)oc2cc(S(=O)(=O)N3CCc4ccccc4C3)ccc21,/,1%,0.8%,/,/
O=C(Nc1ccc(Cl)cc1)N(Cc1cccs1)Cc1cccs1,/,?,2.2%,/,/
Cc1ccc2nc(NC3=NCN(Cc4ccco4)CN3)nc(C)c2c1,/,7%,-0.4%,/,/
Cc1cc(/C=N/n2cnnc2)c(C)n1-c1ccc(OCc2ccccc2F)cc1,/,?,0.5%,/,/
COc1ccc(NC(=O)CN(c2cc(C)cc(C)c2)S(=O)(=O)c2c(C)n[nH]c2C)cc1,/,?,2.9%,/,/
CCCCNC(=O)CC1N=C2c3ccccc3N=C(SCC(=O)Nc3cccc(C)c3)N2C1=O (stereo not given),i,16%,-2.7%,5.6e-09,i
Cc1nn(C)cc1CNC(=O)c1cnn2c1NC(c1ccc(Br)cc1)CC2C(F)(F)F (stereo not given),i,-7%,-2.8%,3.7e-09,i
Cc1ccc2c(C)nc(Nc3nc(CSc4nnnn4-c4ccccc4)cc(=O)[nH]3)nc2c1,i,26%,-0.9%,1e-09,i
N#CC(C(=O)Nc1ccc(Cl)c(Cl)c1)=C1Nc2ccccc2N1,i,/,/,1e-09,i
CCCCCCCCCC(=O)O[C@H](CC(=O)O)C[N+](C)(C)C,/,0%,-0.6%,/,/

# By substructure, those above containing sulfur.
SMILES,Resorufin fluor,TSHR agonist,AID923,A647 autofl,A488 autofl
CCOc1ccc(C(=O)Nc2nncs2)cc1OCC,i,1%[11.4 µM],-0.7%,1e-09,i
Cn1c(=O)oc2cc(S(=O)(=O)N3CCc4ccccc4C3)ccc21,/,1%,0.8%,/,/
O=C(Nc1ccc(Cl)cc1)N(Cc1cccs1)Cc1cccs1,/,?,2.2%,/,/
COc1ccc(NC(=O)CN(c2cc(C)cc(C)c2)S(=O)(=O)c2c(C)n[nH]c2C)cc1,/,?,2.9%,/,/
CCCCNC(=O)CC1N=C2c3ccccc3N=C(SCC(=O)Nc3cccc(C)c3)N2C1=O (stereo not given),i,16%,-2.7%,5.6e-09,i
Cc1ccc2c(C)nc(Nc3nc(CSc4nnnn4-c4ccccc4)cc(=O)[nH]3)nc2c1,i,26%,-0.9%,1e-09,i

# Next part
SMILES,Resorufin fluor,TSHR agonist,AID923,A647 autofl,A488 autofl
CCN1CCN(Cc2ccc(NC(=O)Nc3cccs3)cc2)CC1,i,-5%,-0.3%,1.6e-08,i
Cc1nc(N2CCN(C)CC2)c2sc(=S)n(-c3ccccc3)c2n1,/,11%,-1.3%,/,/
Cc1cccc(-n2c(N)cc(=O)nc2SC(C)C(=O)NC2CCCCC2)c1 (stereo not given),i,5%,-2.9%,6.1e-09,i
Cc1ccc(C)c(C(=O)CSc2n[nH]c(C)n2)c1,/,-3%[11.4 µM],1.2%,/,/
Cn1c(=O)c2c(nc(CN3CCN(CCO)CC3)n2Cc2cccc3ccccc23)n(C)c1=O,i,2%,-1.4%,3.5e-08,i
CCN(CC)CCN1C(=O)C(O)=C(C(=O)c2ccc(C)o2)C1c1ccccn1 (stereo not given),i,-3%,2.2%,1.4e-08,i
CC(C)C1Oc2ccccc2N(CC(=O)N(Cc2ccccn2)CC2CCCO2)C1=O (stereo not given),i,2%,-0.5%,2e-08,i
CCOC(=O)N1CCN(S(=O)(=O)c2cc(OCC)ccc2OCC)CC1,i,3%,0.3%,2.4e-09,i
Fc1ccccc1C(c1nnnn1Cc1ccc2c(c1)OCO2)N1CCN(Cc2ccccc2)CC1 (stereo not given),i,-14%,0.2%,3.5e-09,i
Nc1nc(Nc2cccc(F)c2)nc2ccccc12,i,?,0.5%,8.6e-09,i
Cc1cc(C)nc(/N=C(\N)C2=C(O)CC(C)(C)CC2=O)n1,/,-15%,-0.7%,/,/
c1ccc(-n2c(SCC3CCCCO3)nnc2-c2cnccn2)cc1 (stereo not given),i,6%,0.7%,1.5e-08,i
CCOc1ccccc1NC(=O)CN(C)S(=O)(=O)c1ccc(OC)c(C)c1,i,16%,-0.4%,1.1e-08,i
COc1cc2nc(-c3ccccc3)nc(N3CCCC3)c2cc1OC,i,/,/,9.3e-08,i
CCCCCOc1ccc(C2NC(=O)NC2=O)cc1 (stereo not given),/,1%,-0.2%,/,/
Cc1cc(N2CCN(C(=O)c3ccco3)CC2)n2nc(C)c(-c3ccccc3)c2n1,i,0%[11.4 µM],-2.1%,3e-09,i
O=C(NCc1cccs1)c1nc2c(nnn2Cc2ccccc2Cl)c(=O)[nH]1,i,?,0.4%,1e-09,i
C=CCOc1ccc(C2C(C(=O)c3ccco3)=C(O)C(=O)N2Cc2cccnc2)cc1 (stereo not given),i,20%,-2.8%,2.9e-08,i
Cc1ccccc1Cn1c(=N)n(CC(O)c2ccco2)c2ccccc21 (stereo not given),i,1%,-1.1%,1.4e-08,i
CC(C)(C)C1(c2ccccc2)NC(=O)N(CC(=O)N2CCOCC2)C1=O (stereo not given),i,-4%,2.5%,2.9e-09,i
CCOc1cc(C)c(Cl)cc1S(=O)(=O)N(C)C,i,?,-1.4%,1.1e-09,i
CCOc1ccc2nc(N3CCC(C(=O)N4CCN(c5ccccn5)CC4)CC3)sc2c1,/,8%,0.8%,/,/
CCOC(=O)c1c(-c2ccco2)csc1N,i,3%,0.6%,1.8e-08,i
C[N+](C)(C)CCOC(=O)CCC(=O)OCC[N+](C)(C)C,i,2%,-0.3%,5.8e-08,i
Cc1ccc(OCCn2c(NC(=O)c3ccco3)nc3ccccc32)cc1,i,?,0.6%,3.8e-09,i
O=S(=O)(Nc1ncnc2sc3c(c12)CCC3)c1ccc(Cl)s1,i,-4%,3.1%,3.4e-08,i
O=C(C1CC1)n1cc(C(=S)N2CCOCC2)c2ccccc21,i,14%,-0.2%,3.1e-08,i
COc1ccccc1NC(=O)C(C)NS(=O)(=O)c1ccc(Cl)cc1 (stereo not given),i,-8%,-0.2%,1e-09,i
Fc1ccc(-n2c(-c3ccco3)nc3nc4ccccc4nc32)cc1,i,-9%,14%,5.8e-09,i
O=C(C1CC(c2ccc(F)cc2)=NO1)N1CCN(c2ccccc2)CC1 (stereo not given),/,-4%,-0.8%,/,/
Cc1ccc(-n2nnc3c(SCC(=O)NCc4ccco4)ncnc32)cc1,/,21%,2.3%,/,/
COC(=O)Nc1nnc(Cc2ccccc2)s1,i,8%,-0.4%,4.9e-08,i
Cc1cc(C)c(C#N)c(SCc2ccc3c(c2)OCO3)n1,i,?,0.0%,1e-09,i
Cc1ccccc1-c1ccc2ncnc(N3CCNCC3)c2c1,i,7%,2.1%,3.3e-08,i
CCOC(=O)C1CCN(C(=O)COC(=O)COc2ccccc2OC)CC1,i,0%,-0.6%,3.6e-09,i
C=CCNc1ncnc2c1cnn2-c1ccc(C)cc1C,/,2%,0.4%,/,/
O=c1cc(CSc2nnc(-c3ccccc3)o2)c2ccccc2[nH]1,/,-3%,-2.9%,/,/
N#Cc1cccc(CSc2nnc(CCCO)n2-c2ccccc2)c1,/,4%,1.9%,/,/
Cc1ccc2nc(C3CCCN(C(=O)NCc4ccccc4)C3)[nH]c2c1 (stereo not given),i,-2%,-0.4%,3.2e-09,i
COC(=O)[C@H](C)NC(=O)C/C=C\[C@@H](C)[C@H]1C=C[C@H](O)[C@@H](CO)O1,/,-6%[11.4 µM],-5.6%[11.5 µM],/,/
CC(=O)c1cccc(NC(=O)Nc2cc3sccc3n2C)c1,/,-8%,6.0%,/,/
O=C1CC(c2ccccc2)n2nc(NC(=O)C3CCCO3)nc2N1 (stereo not given),i,/,-0.8%,1e-09,i
CSC1=C(C#N)C(c2ccccc2Cl)C2=C(CCCC2=O)N1 (stereo not given),i,-1%,5.3%,1e-09,i
c1ccc2c(c1)nc1sccn12,i,-15%,-0.2%,1.8e-09,i
O=C(Nc1ccc2c(c1)nc1n2CCSC1)c1ccccc1,i,-8%,6.4%,2.6e-08,i
C=C(C)c1cccc(C(C)(C)NC(=O)N2CCCC(C(N)=O)C2)c1 (stereo not given),i,-4%,0.7%,7.5e-09,i
COc1ccc(-n2c(=O)c(C)nc3cnc(OC)nc32)cc1,i,4%,4.8%,1e-09,i
O=C(CCSc1nc(-c2ccco2)cc(C(F)(F)F)n1)N1CCN(c2ccccn2)CC1,i,?,1.5%,1e-09,i
Cc1nc(NCCO)c2nc(-c3ccccc3)n(CCCN(C)C)c2n1,/,9%,0.6%,/,/
CC(NC(=O)NC(N)=O)(C(F)(F)F)C(F)(F)F,i,/,/,1e-09,i
CSCCC(NC(=O)C1CCC(C)CC1)C(=O)NCc1ccco1 (stereo not given),i,21%,1.2%,5e-08,i
Cc1nnc(SCCn2c(N3CCC(Cc4ccccc4)CC3)nc3c2c(=O)[nH]c(=O)n3C)s1,i,5%,0.1%,1.1e-08,i
CCOC(=O)CSc1nnc(CNC(=O)c2ccc(OC)c(OC)c2)n1C,i,-1%,-0.9%,3.3e-08,i
Cc1cc(-c2ccccc2N)n[nH]1,i,1%[11.4 µM],0.8%,3.5e-09,i
Cc1cc(=O)oc2cc(OCC(=O)NCCc3nc4ccccc4[nH]3)ccc12,/,-8%,2.1%,/,/
O=c1cc(CSc2ccccn2)[nH]c(=O)[nH]1,i,-1%,-1.0%,1e-09,i
CNc1ncncc1-c1ccc(C(=O)N(C)C)cc1,i,-2%,1.7%,1e-09,i
CCOc1ncccc1C(=O)Oc1ccc2c(c1)OCO2,i,?,-2.0%,3.1e-08,i
COCCCNc1ccnc2c(Cl)cccc12,i,3%,-1.6%,7.9e-09,i
Cc1nc2cnc(N3CCNCC3)nc2n(Cc2cccs2)c1=O,i,5%,1.2%,1e-09,i

# Continued:
SMILES,Resorufin fluor,TSHR agonist,AID923,A647 autofl,A488 autofl
CC(=O)N1CC=C2C(C#N)=C(N)C(C#N)(C#N)C(CCc3ccccc3)C2C1 (stereo not given),i,21%,8.8%,2.2e-08,i
C=CCN1CCN(C(c2ccc(Cl)cc2)c2nnnn2CCc2ccc(OC)c(OC)c2)CC1 (stereo not given),i,9%,7.4%,2.6e-08,i
CCOC(=O)C1CCN(C(=O)Nc2ccc3c(c2)nc(C)n3C)CC1,i,5%,0.8%,1.5e-08,i
CCn1cc(C(=O)NCc2ccccc2OC)c(=O)c2cc(S(=O)(=O)N(C)C)ccc21,/,1%,-2.0%,/,/
CCOC(=O)c1ccc(Oc2cc(C)nc(SC)n2)cc1,/,?,0.3%,/,/
O=S(=O)(NCc1ccccn1)c1cccc2nsnc12,i,-3%[11.4 µM],-1.9%,3.9e-09,i
O=C(Cn1cnc2ccccc2c1=O)NCC(=O)N1CCN(Cc2ccc3c(c2)OCO3)CC1,i,/,-1.1%,5.9e-09,i

# One compound at a time, as listed above. Screens in order: Resorufin fluor, TSHR agonist, AID923, A647 autofl, A488 autofl
# CCn1cc(C(=O)NCc2ccccc2OC)c(=O)c2cc(S(=O)(=O)N(C)C)ccc21 across the screens: /, 1%, -2.0%, /, /
# CCOC(=O)c1ccc(Oc2cc(C)nc(SC)n2)cc1 across the screens: /, ?, 0.3%, /, /
